From PubChem
NPYLR7 agonist: agonists of mosquito NPYLR7 receptor, primary screen, cell-based, Aedes aegypti, calcium fluorescence, mosquito biting behavior | 270,000 compounds, 0.15% hits | HEK293T NPYLR7/Galpha15, GCaMP6s calcium fluorescence | Aedes aegypti neuropeptide Y-like receptor 7 (NPYLR7) | activation, % at 10 µM; in the data active = activation above about 40%;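 note: 0% = vehicle and 100% = reference agonist at the receptor; some compounds past the cut are filed as inactive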
NPYLR7 agonist max-min: second read-out of NPYLR7 agonist, no call of its own (marks repeat the call); activation, %; measured here: Max-Min RFU normalised activation; some inactives read as strong as hits;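 span of the calcium signal over five minutes; 0% = vehicle and 100% = native peptide agonist; compound fluorescence can raise it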
* hit, by the source's call; & = joins results of further samples. The list is partial; rates above refer to the full screens.

SMILES	NPYLR7 agonist	NPYLR7 agonist max-min
CCCc1nc(SC(C)c2cccc(F)c2)n[nH]1 (centres undefined)	1	-1
CC(=O)c1ccc(S(=O)(=O)N2CCN(C(C)c3ccccc3)CC2)cc1 (centres undefined)	-1	-1
Cc1ccc(-c2cc(C(F)(F)F)n3nc(N)nc3n2)cc1	2	3
CC(C)CCC1(C2CCN(C(=O)c3noc4c3CCCC4)CC2)NC(=O)N(CCN(C)C)C1=O (centres undefined)	3	-1
Cc1cccc2[nH]cc(C(=O)CN3CCC(C(=O)N4CCCC4)CC3)c12	0	6
Nc1c(C(=O)NCc2cccs2)c2nc3ccccc3nc2n1/N=C\c1cccnc1	32	19
COc1cccc(NC(=O)CSc2nc(=O)n(CCCN(C)C)c3c2CCCC3)c1	1	8
CCOC(=O)c1ccccc1NC(=O)CSc1n[nH]c(=O)c2cc(-c3ccco3)nn12	-3	-8
CCOC(=O)CCC(=O)Nc1ccc(-c2onc3c2CCc2cc(OC)ccc2-3)cc1	4	6
O=C(Cn1c(-c2nnco2)cc2ccccc21)c1ccccc1	1	0
COc1ccc(NC(=O)Cn2c(-n3nc(C)cc3C)nc3c(c2=O)CCCC3)c(OC)c1	16	18
CC(C)(C)CC(C)(C)Nc1c(-c2ccccc2Cl)nc2ccc(Cl)cn12	12	8

Compound profiles (already shown):
Shown for CCCc1nc(SC(C)c2cccc(F)c2)n[nH]1 (centres undefined) → NPYLR7 agonist: 1; NPYLR7 agonist max-min: -1
Shown for Nc1c(C(=O)NCc2cccs2)c2nc3ccccc3nc2n1/N=C\c1cccnc1 → NPYLR7 agonist: 32; NPYLR7 agonist max-min: 19

(next part)
SMILES	NPYLR7 agonist	NPYLR7 agonist max-min
FC(F)(F)c1cccc(SCc2csc(Cc3ccc(Cl)c(Cl)c3)n2)c1	3	1
Cc1nn(-c2ccc(Nc3ccc(NC(=O)Nc4cccc(F)c4)cc3)nn2)c(C)c1C	-3	-8
CCOc1ccc(C(=O)NC2CC3CCC(C2)N3Cc2ccoc2)cc1 (centres undefined)	4	5
COc1ccc(CNc2sc(S(C)(=O)=O)nc2S(=O)(=O)c2ccc(C)cc2)cc1	2	42
COc1ccc(OCC(=O)NNC(=O)c2ccc(N3CCCC3=O)cc2)cc1	1	-2
CCSC1(SCC)N=C(N)C2(C#N)C(c3ccccc3Br)C12C#N (centres undefined)	8	3
Cc1ccc2nc(SCC(=O)c3ccc(Cl)cc3)nc(=O)n2c1	3	-1
Cc1ccc(N[P+](c2ccncc2)(N2CCCC2)C(C)(C)C)cc1Cl (centres undefined)	5	3
Clc1ccc(-c2nc(-c3ccncc3)no2)cc1	2&23	1&14
CCn1c(-c2ccc(Cl)cc2)nn(CN2CCN(c3nccs3)CC2)c1=S	9	4
CCC12CC3CC(O)(C1)CC(C(=O)NCc1ccc(O)c(OC)c1)(C3)C2 (centres undefined)	4	1
Cc1ccccc1C(=O)Nc1cccc(-c2cccc(-c3ccc4c(c3)OCCO4)n2)c1	4	4

Copied from the list:
CCOc1ccc(C(=O)NC2CC3CCC(C2)N3Cc2ccoc2)cc1 (centres undefined) @ NPYLR7 agonist = 4
Cc1ccccc1C(=O)Nc1cccc(-c2cccc(-c3ccc4c(c3)OCCO4)n2)c1 @ NPYLR7 agonist = 4
FC(F)(F)c1cccc(SCc2csc(Cc3ccc(Cl)c(Cl)c3)n2)c1 @ NPYLR7 agonist = 3
CCSC1(SCC)N=C(N)C2(C#N)C(c3ccccc3Br)C12C#N (centres undefined) @ NPYLR7 agonist = 8

Next part:
SMILES	NPYLR7 agonist	NPYLR7 agonist max-min
CC(C)NC(=O)C1(C)CCN1C(=O)c1ccc(C#N)cc1 (centres undefined)	5	2
CCOC(=O)C1CCCN(C2CCN(Cc3nc(CCc4ccccc4)no3)CC2)C1 (centres undefined)	3	2
O=C(COc1ccc(C=C2C(=O)OC3(CCCCC3)OC2=O)cc1)Nc1ccccc1	-2	-6
O=C(OCc1cc(-c2ccc(F)cc2F)on1)c1ccc(Br)o1	0	-2
COc1ccc(/C=C(/C#N)S(=O)(=O)C2CCCCC2)cc1	7	8
CN1CCC(OC(=O)c2ccc3cc(C(=O)OC4CCN(C)CC4)ccc3c2)CC1	-2	-5
O=C(c1c[nH]c(=O)c(Cl)c1)N1CCOC(COCc2ccc(F)cc2Cl)C1 (centres undefined)	28	18
Cn1ncc2c(=O)n(CC(=O)Nc3cccc(S(N)(=O)=O)c3)cnc21	4	6
c1csc(-c2cc(CSc3nnc(C4CC4)n3C3CC3)no2)c1	0	3
O=C(c1cc(Cl)c2nc3ccccn3c(=O)c2c1)c1cc(F)ccc1O	3	6
COc1ccc(-c2nc(N3CCCC3)c3ccc(Cl)cc3n2)cc1	0	1
COC(=O)c1ccc(N2CCOC(C(F)(F)F)C2)nc1 (centres undefined)	7	-2

Some of the entries above in another layout.
compound: COC(=O)c1ccc(N2CCOC(C(F)(F)F)C2)nc1 (centres undefined)
  NPYLR7 agonist = 7; NPYLR7 agonist max-min = -2

compound: c1csc(-c2cc(CSc3nnc(C4CC4)n3C3CC3)no2)c1
  NPYLR7 agonist = 0; NPYLR7 agonist max-min = 3

compound: CCOC(=O)C1CCCN(C2CCN(Cc3nc(CCc4ccccc4)no3)CC2)C1 (centres undefined)
  NPYLR7 agonist = 3; NPYLR7 agonist max-min = 2

compound: CC(C)NC(=O)C1(C)CCN1C(=O)c1ccc(C#N)cc1 (centres undefined)
  NPYLR7 agonist = 5; NPYLR7 agonist max-min = 2

(more compounds)
SMILES	NPYLR7 agonist	NPYLR7 agonist max-min
CC(C)NC(=O)CNC(=O)c1ccc(Cl)c(NC(=O)c2cccs2)c1	0	-3
CCCSc1ncccc1C(=O)NCCc1cccc(F)c1	-10	-12
O=C1COCc2ccc(-c3cc4ccccc4o3)cc2N1CC1CC1	6	2
CC1Oc2ccccc2C=C1/C=c1\sc2nc(=O)c(Cc3ccc(F)cc3)nn2c1=O (centres undefined)	6	8
C=CCCC(=O)N1CCN(Cc2cc(=O)c(OCc3ccc(C(F)(F)F)cc3)co2)CC1	-8	-6
O=C(c1ccccc1)N1CCc2ccccc2C1c1ccc(Cl)cc1 (centres undefined)	25	18
Nc1nc(SCC(=O)N2CCOCC2)n[nH]1	0	-4
CCOc1ncccc1CN1CCCC(C(=O)NC23CC4CC(CC(C4)C2)C3)C1 (centres undefined)	-13	-16
O=[N+]([O-])c1ccc2[nH]c(O)c(N=Nc3cccc(C(F)(F)F)c3)c2c1	4	4
O=C(CS(=O)Cc1ccc(F)cc1)Nc1ccc(F)cc1F (centres undefined)	-5	-5
N#Cc1ccc(/C=C/c2nc(-c3ccc(F)cc3)cs2)cc1	3	2
COc1cc(C)ccc1S(=O)(=O)Nc1cccc(C)c1C	-2	-3
Cc1c(C(C)NCc2ccc(C#Cc3cncnc3)cc2)cnn1-c1ccc(F)cc1F (centres undefined)	1	2
CN1C(=O)C(Cc2c[nH]c3ccccc23)NC1=S (centres undefined)	-18	-22
COCC1CCCCN1c1nc2nonc2nc1NCc1cccs1 (centres undefined)	3	-1
Cc1nc(C)c(Cc2ccccc2Cl)c(N2CCN(C(=O)c3cccc4ccccc34)CC2)n1	0	6
Brc1ccc(-c2nnco2)cc1	5	4
CCCC(=O)N(CCCOC)CC(=O)N(CCc1c[nH]c2ccccc12)Cc1ccc(F)cc1	22	24
COc1ccc(OCCCCOc2ccc3ccccc3c2)cc1	9	10
Cc1nc(N2CCOCC2)sc1C(=O)NNC(=O)CCc1ccccc1	-1	-5
Cc1cc(=O)[nH]c(-n2nc(C3CC3)cc2NC(=O)c2c(F)cccc2F)n1	1	1
CNC(=O)[C@H]1C[C@]2(CCCCNC2=O)N(C(=O)Cc2ccc(OC)cc2)[C@H]1c1ccco1	2	7
CCOC(=O)c1cccnc1Oc1cccc(NC(=O)/C=C\c2ccc(OC)cc2)c1	-9	-12
CCCc1cc(C(=O)N2CCC3(CCNC(=O)CC3)CC2)cs1	8	5
Cc1ccn2c(NC(=O)C34CC5CC(CC(C5)C3)C4)c(-c3ccccc3C)nc2c1	-1	5
Cc1cc(O)ccc1NC(=O)CC(NCCc1ccccc1)C(=O)O (centres undefined)	12	12
CN=c1scc(-c2ccco2)n1N=Cc1ccc(O)c(O)c1	-17	-23
CCOC(=O)C1CCCN(C(=O)CC(c2ccc(OC)cc2)c2cn(C)c3ccccc23)C1 (centres undefined)	14	34
COc1ccc(-c2cccc(-n3cncc3C(=O)NC/C=C(\C)CCC=C(C)C)c2)cc1OC	24	17
CC1c2cccn2CCN1C(=O)c1cccc(S(=O)(=O)CC(F)(F)F)c1 (centres undefined)	11	9
CN1C[C@@H](NC(=O)CC2CCCC2)C[C@H]1C(=O)NCc1ccccn1	-4	-7
CCOc1ccc(NC(=O)c2cn(-c3cc(N4CCOCC4)ncn3)cn2)cc1	-7	-8
CCCCN(C=O)c1c(CC)nc2c(OCC(=O)N(C)C)cccn12	4	10
Cc1cccnc1NC1(C(F)(F)F)N=C(c2ccccc2)NC1=O (centres undefined)	1&-8	14&-12
CC(=O)NC1=NN(C(C)=O)C2(S1)C(=O)N(CCOc1ccccc1)c1ccc(C)cc12 (centres undefined)	0	5
COCc1nc(NCc2ccccc2-n2cccn2)c2cnn(C)c2n1	-6	-9
COc1cc(Cl)ccc1CNC(=O)N1CCN(c2ncccn2)CC1	6	2
Cc1cc(C)cc(NC(=O)CSc2cn(CC(=O)N3CCOCC3)c3ccccc23)c1	-4	-8
Cc1cc(C)c(OCC(=O)NS(=O)(=O)c2c(C)noc2C)c(C)c1	7	5
COc1cc(/C=N\NC(=O)CSc2nnc(-c3ccccc3)n2-c2ccccc2)ccc1O	-6	-13
CCC(=O)NC1CCCN(CCS(=O)(=O)c2ccc(Br)cc2)C1 (centres undefined)	3	1
COC(=O)Cn1c(-c2ccccc2)cn2c3c(=O)n(C)c(=O)n(C)c3nc12	12	6
O=[N+]([O-])c1c(Cl)ncnc1N1CCCCCC1	13	4
COc1ccc(NC(=O)N2CCSC23C(=O)N(Cc2ccc(F)cc2F)c2ccc(C)cc23)cc1 (centres undefined)	9	13
O=C(Cn1cnnn1)N(CC(F)F)c1cccc(Cl)c1	1	0
COc1ccc(NC(=O)Cn2nc(SC)c(S(=O)(=O)c3ccccc3)c2N)c(OC)c1	-1	-12
O=S(=O)(Cc1ccc(Cl)cc1)c1ccc(NCc2ccccn2)nn1	-4	-11
O=C(Nc1ccnn1C1CCN(CC2CC=CCC2)CC1)C1CCCC1 (centres undefined)	0	0
O=C(c1ccco1)N(Cc1cccc(F)c1)CC1CC(c2ccc(Cl)cc2)=NO1 (centres undefined)	10	10
COc1ccc(-c2noc(CCNCC(O)COc3ccccc3C)n2)cc1OC (centres undefined)	4	6
CCC(C)Sc1nnc(CSc2nc(C)cc(C)n2)n1C (centres undefined)	0	2
C/C(=C/C(=O)NCc1ccc[nH]1)c1ccccc1F	-4	-5
CCCN(CCc1c[nH]c2ccc(NC(=O)CO[C@@H]3C[C@H](C)CC[C@H]3C(C)C)cc12)CC1CC1	0	7
COc1ccc(-c2c[nH]c(=S)n2-c2ccc(OC(F)F)cc2)cc1	-9	-17
O=c1c2cnc3nc(-c4ccc(Cl)cc4)nn3c2ccn1CC1CCCO1 (centres undefined)	0	0
CCOC(=O)c1c(C)oc2c1cc(O)c1ccccc12	-2	-6
O=C(Cn1cnc2ccccc21)N1CCN(c2ccc(-c3cccs3)nn2)CC1	1	20
CCc1nc2ccc(C(=O)NCCNC(C)=O)cn2c1N(C)C(=O)c1cccc(OC)c1	17	15
CC(C)CN(CCn1c(=O)oc2ccccc21)Cc1cnn(C)c1	0	0
COc1ccccc1-c1nc(SC2CCCC2)c2c(=O)n(C)c(=O)n(C)c2n1	0	-3
Next results:
SMILES	NPYLR7 agonist	NPYLR7 agonist max-min
CC(NS(=O)(=O)c1ccc(C#N)cc1)c1nc(-c2ccc(F)cc2)no1 (centres undefined)	-4	-6
N#Cc1ccc(S(=O)(=O)N2CCN(C(=O)c3ccc(F)cc3)CC2)cc1	7	6
O=C(C1CCS(=O)(=O)C1)N1CCN(Cc2csc(-c3ccco3)n2)CC1 (centres undefined)	4	2
NC(=O)c1cc(NC(=O)C2(c3ccccc3)CCC2)c(F)cc1F	-1	-1
COc1ccc(CNC(=O)CSc2nc3[nH]ncc3c(=O)n2-c2ccccc2)cc1	1	5
O=c1c(NC2CC2)c(Cl)cnn1C12CC3CC(CC(C3)C1)C2	-2	-2
COC(=O)c1cncc(N2C[C@@H]3C4CCC(CC4)[C@@H]3C2)n1	7	-2
COCc1ccc(CN2CCCC(C(=O)Nc3cccc(-c4ccc(F)cc4)c3)C2)o1 (centres undefined)	8	0
CC(=O)Oc1c(-c2ccc(NC(=O)c3ccc(C(F)(F)F)cc3)cc2)c(-c2ccc3c(c2)OCO3)nn1-c1cccc(C)c1	4	11
Cc1ccc(C)c(Cn2c(CN3CCCC(C)C3)nc3c2c(=O)n(C)c(=O)n3C)c1 (centres undefined)	2	1
CCN(C1CCS(=O)(=O)C1)S(=O)(=O)c1ccc(Cl)s1 (centres undefined)	10	11
